Beta2AR agonist – activates human beta-2 adrenergic receptor causing internalization | Am2.2-beta2AR cells, FAP receptor internalization, flow cytometry; reference of the scale not given here | response, % (concentration not given with the values) | 0.43% of 340,000 active | AID 504454;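 active = response above a set limit, near 3 SD of response in nonfluorescent compounds, cut at about 42% in these data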;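 also: stock transfer was 100 nL into about 11 µL; a reference agonist was the positive control; negative values mostly stem from fluorescent compounds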
LANA-H2A inh – blocks KSHV LANA binding to histone H2A/H2B; inhibition, % (no concentration beside the values); cell-free LANA-H2A/H2B peptide, fluorescence polarization; Q9QR71; 0.6% of 320,000 active; in the data active = inhibition mostly above about 10%, no sharp cut-off; inactive = mostly below about 6.7%;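 also: stock transfer was 7.5 nL into about 10 µL; 0% = median of vehicle wells and 100% = median of positive control wells; one replicate is shown; the record names a cut of 25% in any replicate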
UCH37 inh – human UCH37 deubiquitinating enzyme inhibition; inhibition, % (test concentration not listed); Q9Y5K5; purified proteasome/UCH37, Ub-AMC cleavage fluorescence; 0.33% of 330,000 active;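 active = mean of two replicates above 20%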;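 also: 0% = compound-free wells with enzyme and 100% = wells lacking proteasome; stock transfer was 100 nL into about 20 µL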
Target sequence (Q9Y5K5 whole entry, looked up): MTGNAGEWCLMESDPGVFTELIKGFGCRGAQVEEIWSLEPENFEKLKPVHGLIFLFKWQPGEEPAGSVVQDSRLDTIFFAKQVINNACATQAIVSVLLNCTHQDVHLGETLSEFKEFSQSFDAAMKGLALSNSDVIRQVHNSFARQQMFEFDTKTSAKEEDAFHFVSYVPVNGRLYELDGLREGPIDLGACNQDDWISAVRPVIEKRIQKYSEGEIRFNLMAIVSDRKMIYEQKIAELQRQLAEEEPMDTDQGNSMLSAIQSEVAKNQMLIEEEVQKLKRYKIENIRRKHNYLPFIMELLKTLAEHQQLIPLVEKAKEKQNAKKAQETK
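assay system = human UCH37 enzyme supplied as purified proteasome complex | amount = proteasome at 0.15 nM in the dispensed enzyme solution | schedule = 30 min compound-proteasome preincubation then 25 min substrate reaction, room temperature | measured by = fluorescence, ex 355 nm, em 460 nm | benchmarks = no-proteasome wells (full inhibition) and compound-free wells (no inhibition)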
HNF4A DNA FP – change in binding of human HNF4 alpha to DNA; 0.3% of 360,000 active; AID 1224865; activity change, % at 10 µM; P41235; HNF4a-FITC DNA binding, fluorescence polarization, 1 h; in the data active = activity change above about 30%, passing the limit was not always enough;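 also: controls were the assay level and a saturating level of protein; the project sought stronger binding though the title names inhibitors; some compounds called inactive have numbers as strong as hits; positive values seem to mean higher polarization but the record does not say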
ALR H2O2 inh – inhibitors of human sulfhydryl oxidase ALR | AID 485317 | 3.8% of 290,000 active | purified ALR, DTT oxidation, H2O2 HRP-luminol luminescence | inhibition, % (no concentration beside the values);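 active = mean and each replicate at 75% or more; inconclusive = only one of the two met; inactive = neither met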;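 also: stock transfer was 7.5 nL into about 7.5 µL; 0% = neutral wells and 100% = wells with inactivated enzyme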
Target sequence (P55789 whole entry, looked up): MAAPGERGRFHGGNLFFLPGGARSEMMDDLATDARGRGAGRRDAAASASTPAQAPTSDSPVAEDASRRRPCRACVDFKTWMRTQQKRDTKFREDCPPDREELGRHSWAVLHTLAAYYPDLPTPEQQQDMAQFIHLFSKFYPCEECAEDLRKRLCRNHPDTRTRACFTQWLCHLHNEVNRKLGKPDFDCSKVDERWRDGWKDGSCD
E coli growth – blocks Escherichia coli growth. OD600, 23 h; hits give low values. AID 1053175. OD600 absorbance (concentration not given with the values). 0.21% of 330,000 active;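 active = OD600 absorbance below the run mean of sample wells minus 3.6 SD, in any replicate, cut at about 0.56 in these data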;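 also: stock transfer was 300 nL into about 60 µL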
FGF22 binding – shifts melting point of recombinant human FGF22. recombinant FGF22 thermal shift, SYPRO orange fluorescence; percent of sucrose octasulfate shift, DMSO zero. calls only at 9.99 µM. 1.5% of 340,000 active. AID 651658;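 active = melting point raised past a set limit in the mean and every replicate; inconclusive = no clear call; three in four hits are not shown here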
Target sequence (Q9HCT0 whole entry, looked up): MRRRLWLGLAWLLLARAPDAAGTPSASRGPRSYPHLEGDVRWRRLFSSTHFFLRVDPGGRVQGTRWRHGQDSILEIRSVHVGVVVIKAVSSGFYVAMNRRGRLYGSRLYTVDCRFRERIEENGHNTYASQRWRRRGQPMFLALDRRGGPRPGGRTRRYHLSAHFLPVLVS
* hit, by the source's call; i = inactive; ? = inconclusive; nt = no result given.

SMILES	Beta2AR agonist	LANA-H2A inh	UCH37 inh	HNF4A DNA FP	ALR H2O2 inh	E coli growth	FGF22 binding
CC1(C)CC(=O)C(C(c2ccncc2)C2C(=O)CC(C)(C)CC2=O)C(=O)C1	5.7	10.5	1.3	-0.7	nt	0.731	nt
COc1ccc(S(=O)(=O)N2CCCCC2)cc1NC(=O)C1COc2ccccc2O1 (stereo unspecified)	8.9	-3.7	1.9	-4.8	-19.9	0.692	i
CCOc1ccc(Br)cc1C(=O)N/N=C/c1cccc(C)n1	-6.0	2.7	nt	-2.8	0.6	nt	i
Cc1c(CN2CCC(Oc3ccc(C(=O)N4CCCCC4)cc3)CC2)cnn1C	-5.5	3.8	-2.8	1.6	-2.8	0.705	i
COc1ccc2cnnc(SCC(=O)Nc3ccccc3)c2c1OC	-12.1	4.5	6.1	-0.1	17.4	0.643	i
COc1ccc(NC(=O)NNC(=O)COc2ccc3cc(Br)ccc3c2)cc1OC	20.2	0.3	2.6	-4.0	-19.0	0.733	i
COc1ccccc1NC(=O)COc1ccc(C(=O)OCC(=O)NC(C)(C)C)cc1OC	2.6	-2.8	3.0	-3.1	nt	0.678	i
COc1ccc(Cl)cc1N1C(=O)C2CCCN2C1c1cccc(F)c1 (stereo unspecified)	4.0	-1.0	-0.1	-1.4	-4.7	0.765	i
CCNC(=S)N(Cc1ccccc1)Cc1nc2ccccc2c(=O)[nH]1	4.6	3.5	-49.2	-3.1	0.6	0.692	i
CC1=C(C(=O)Nc2cccc(C(=O)N3CCC(C(N)=O)CC3)c2)SCCO1	5.7	7.6	0.0	0.1	1.0	0.651	i
Cc1ccc(C)c(S(=O)(=O)N2CCN(C(=O)CCC(=O)c3cc(C)sc3C)CC2)c1	13.7	7.2	0.3	0.7	-12.1	0.712	i
Cc1ccc(S(=O)(=O)N2CCC(C(=O)OC(C)C(=O)NCc3ccccc3)CC2)cc1C (stereo unspecified)	-2.4	-19.9	0.2	0.9	-3.7	0.697	i
Cc1ccc(S(=O)(=O)CC(=O)c2cc3cccc(C)c3oc2=O)cc1	9.0	-3.6	1.8	1.0	-2.2	0.682	i
Cc1cc(/C=C(\C#N)C(=O)NCc2ccco2)c(C)n1-c1ccc(C(=O)O)cc1	-2.2	0.3	16.4	-8.3	nt	0.68	i
CC1CN(CCOc2ccccc2-c2ccccc2)CC(C)O1 (stereo unspecified)	2.4	4.6	0.1	-1.5	0.5	0.708	i
Cc1ccc(NS(=O)(=O)c2ccc(N3C(=O)CCC3=O)cc2)cc1	1.9	-4.2	2.5	-0.7	-10.0	0.747	nt
CCOc1ccc2nc(NC(=O)c3cccc(-c4cc5ccccc5oc4=O)c3)sc2c1	-22.9	-1.7	-32.8	-3.6	nt	0.7	i
O=C(N/N=C/c1cn(Cc2cccc(F)c2)c2ccccc12)c1cc(O)cc(O)c1	2.9	-1.9	nt	-62.1	2.8	nt	i
O=C(O)CCSc1nnc(SCC(=O)NC2CCS(=O)(=O)C2)s1 (stereo unspecified)	-3.3	9.5	0.1	-2.3	-1.4	0.626	i
Cc1cccc[n+]1C1C(c2ccc([N+](=O)[O-])cc2)C(C#N)=C(C(=C=[N-])C#N)NC1(O)C1CC1 (stereo unspecified)	-2.9	9.1	5.3	0.4	46.9	0.688	i
Cc1cc(C)n(CC(=O)NN)n1	4.9	0.9	3.3	-0.5	12.0	0.667	i
Cc1cc(C(=O)OCC(=O)N(C)c2ccccc2)ccc1[N+](=O)[O-]	-10.5	-3.1	6.0	-2.5	-10.4	0.669	i
CC1CC(C)(C)CC2(C1)NC(=O)N(CC(=O)N(C)Cc1nc3ccccc3c(=O)[nH]1)C2=O (stereo unspecified)	-0.4	-1.5	4.0	-0.7	nt	0.713	i
Nc1ccc(N=Nc2ccccc2)c2ccccc12	-12.6	0.6	1.1	0.9	-6.6	0.679	i
COc1cc(OC)c(C2SCCS2)c(OC)c1	-2.2	-0.2	3.2	3.1	98.9*	0.702	nt
CCn1c(SCC(=O)c2ccc(O)c(O)c2)nnc1-c1ccccc1	13.3	-0.7	2.7	-0.9	97.6*	0.719	nt
Cc1cccc(OCC(=O)NNC(=O)CSc2ncc(C#N)c(N)n2)c1	-0.2	0.1	-4.9	4.5	-8.1	0.665	nt
CC(C)C(=O)O/N=C(\N)c1ccc(Oc2ccc(Cl)cc2)c([N+](=O)[O-])c1	-7.8	1.6	nt	1.9	-13.3	nt	i
Cn1c(CNc2ccc(Cl)cc2)nnc1SCCN1CCCCC1	6.5	-0.4	4.0	0.5	7.2	0.75	nt
CC1(C)Cc2c(c(N3CCOCC3)nc3sc(C(=O)Nc4ccccc4)c(N)c23)CO1	-4.9	3.5	nt	5.2	3.2	nt	i
CC(=O)N1C2=CCCC3CCCCC23c2ccccc21 (stereo unspecified)	-548.8	nt	nt	2.3	nt	nt	i
O=C(NCCCN1CCOCC1)c1ccc2nc(Cc3cccc(Cl)c3)oc2c1	5.6	-6.4	-0.2	0.2	-1.6	0.662	i
CCOC(=O)C(=O)Nc1nnc(CCc2ccccc2)s1	4.2	-4.5	5.3	-0.4	-0.8	0.698	nt
O=C(Nc1nc2ccccc2n1CCN1CCOCC1)c1ccc(Cl)cc1	-4.6	2.2	-275.2	2.9	nt	0.671	i
CCC1CCCCN1S(=O)(=O)c1ccc(NC(=O)c2snnc2C)cc1 (stereo unspecified)	9.0	nt	-0.7	-4.3	-5.3	0.645	i
CC(=O)c1ccc(S(=O)(=O)N(C)C(C)CCc2ccco2)cc1 (stereo unspecified)	12.8	2.6	5.3	1.8	-0.5	0.686	i
Cc1cc(C)c2cc(C#N)c(SCC(=O)NCc3ccco3)nc2c1	11.1	-4.0	-5.4	0.6	15.5	0.766	nt
Cc1cc(C)cc(OCc2nnc(SCC(=O)c3ccccc3)o2)c1	8.0	-0.2	1.2	-1.1	-6.1	0.681	nt
O=C(Nc1ccc(N2CCOCC2)c(S(=O)(=O)Nc2ccc(Cl)cc2)c1)c1cnccn1	-22.7	0.1	2.1	3.4	-25.0	0.634	i
N#Cc1ccccc1CSc1ccccn1	-4.0	-0.3	1.9	0.5	-1.4	0.601	nt
CC(C)(C)OC(=O)CNC(=O)c1nc[nH]c1C(=O)N1CCc2ccccc2C1	-0.6	1.5	31.4*	-2.2	nt	0.669	i
COc1cccc(F)c1C(C[N+](=O)[O-])c1c(N)n(C)c(=O)n(C)c1=O (stereo unspecified)	9.3	-1.6	0.3	0.6	4.3	0.542	i
O=C1NN(c2ccccc2)C(=O)C2C1C1C=CC2C12CC2 (stereo unspecified)	-0.3	-0.4	3.9	1.3	nt	0.707	nt
O=C(c1ncc[nH]1)c1ccccc1Cl	-3.9	3.3	3.1	0.7	9.3	0.7	i
CC(=O)N1CCN(S(=O)(=O)c2cccc(C(=O)OCC(=O)N3CC(=O)Nc4ccccc43)c2)CC1	-1.3	0.2	0.6	-1.6	-9.0	0.646	i

Overlap with the part before: 2 entries, followed by the next part.
SMILES	Beta2AR agonist	LANA-H2A inh	UCH37 inh	HNF4A DNA FP	ALR H2O2 inh	E coli growth	FGF22 binding
O=C(c1ncc[nH]1)c1ccccc1Cl	-3.9	3.3	3.1	0.7	9.3	0.7	i
CC(=O)N1CCN(S(=O)(=O)c2cccc(C(=O)OCC(=O)N3CC(=O)Nc4ccccc43)c2)CC1	-1.3	0.2	0.6	-1.6	-9.0	0.646	i
CCCCCCCCCc1nc2sc3c(c2c(=O)n1NC(=O)c1ccccc1[N+](=O)[O-])CC(C)(C)OC3	13.6	0.8	2.5	4.4	-28.4	0.72	i
Cc1cccc(CN2CCN(Cc3nc4c(s3)CCCC4)CC2CCO)n1 (stereo unspecified)	-0.1	-2.3	-1.2	-0.2	-2.6	0.69	i
CC(C)Cn1c(=S)[nH]c2cc(Cl)ccc21	3.2	1.4	1.2	-1.2	?	0.613	nt
CCN(CC)CCN(C(=O)c1cc2ccccc2cc1OC)c1nc2ccc(F)cc2s1	14.5	2.3	1.7	0.9	-0.4	0.719	i
Cc1cc(C)n(Cc2ccc(C(=O)NN)o2)n1	-2.3	-0.3	1.9	-1.8	nt	0.678	i
CCCCn1c(SCC(=O)N2CCOCC2)nnc1-c1ccoc1C	2.9	-2.4	-0.2	2.0	nt	0.718	nt
CC(=O)c1c(N2CCOCC2)nc2ccc(Cl)cc2c1-c1ccccc1	-0.8	1.1	3.1	0.8	-6.4	0.668	i
Cc1ccc(C(=O)N/N=C2\CC3CC=CC23)c(C)c1 (stereo unspecified)	3.1	2.5	nt	1.2	2.5	nt	nt
CN1c2cccc3cccc(c23)N(C)C1c1cccs1	2.2	0.6	-0.3	-0.4	90.4*	0.726	nt
Cc1ccc(C(=O)NCCCNCCCN(C)C)cn1	4.4	1.1	3.5	-13.1	-7.5	0.73	nt
COc1ccc2oc(C(=O)OCC(=O)N(C)Cc3ccccc3)c(C)c2c1	4.4	3.2	-50.3	1.7	nt	0.688	i
COc1ccc(C2=NS(=O)(=O)N(C)C(C(=O)Nc3cc(C)ccc3O)=C2)cc1OC	9.5	0.8	6.2	1.7	10.9	0.69	i
CCCCNc1ccc2c(c1)C1CC2CCN1C(=O)OCc1ccccc1 (stereo unspecified)	6.5	nt	nt	-2.0	nt	nt	i
Cc1cccc(NC(=S)N2CCC(c3nc4ccccc4s3)CC2)c1	-20.9	-1.3	4.2	3.8	-3.5	0.728	nt
COc1cccc(Oc2cnc(N)nc2-c2ccc(OC)cc2O)c1	-8.3	0.0	4.8	1.2	1.4	0.692	nt
Cc1ccc(C(=O)NCC(=O)N2CCN(c3ncccn3)CC2)s1	-7.3	17.5*	-2.6	0.0	nt	0.668	nt
Cc1[nH]c(=O)[nH]c(=O)c1CSCC(=O)OCC(=O)Nc1ccccn1	-4.5	-4.8	5.3	-5.3	-4.0	0.658	i
O=C(NCc1ccccn1)Nc1ccccc1	-4.9	1.1	0.4	0.3	-1.6	0.685	i
CC(C)(C)c1csc(NC(=O)c2cccs2)n1	1.8	-3.3	-1.3	-1.7	-3.0	0.663	nt
CCOC(=O)c1c(C=O)c2sc(C)cc2n1C	-0.9	3.8	-11.6	0.9	-2.0	0.675	i
Cc1ccc(C)c(NC(=O)c2ccccc2NC(=O)C2CCCO2)c1 (stereo unspecified)	11.2	-2.6	-0.4	5.5	-2.6	0.722	i
CN(Cc1cccc(F)c1)C(=O)c1cc(=O)[nH]c2ccccc12	2.4	-5.3	-13.2	1.8	-14.3	0.672	i
CCOc1ccccc1CN1CCNC(=O)C1CC(=O)N(C)CCc1cnn(C)c1 (stereo unspecified)	5.0	-0.5	4.5	1.2	-2.1	0.692	i
O=C(COC(=O)c1ccc(Cl)s1)c1ccc[nH]1	5.5	-14.3	2.7	3.4	nt	0.717	i
C=C(C)CNC(=S)N/N=C(\C)c1ccc(OC)cc1	-9.3	-2.4	nt	4.2	10.9	nt	i
COc1ccccc1OCCNC(=O)C1CCCCC1	-0.8	0.7	1.0	-0.6	0.2	0.701	i
CSc1nc(N)nc(N(C)C)n1	-0.4	2.5	1.4	-2.2	2.0	0.623	i
Nc1ccc(-c2cn3cccnc3n2)cc1	-24.7	nt	5.7	2.1	nt	0.666	i
COc1ccc2nc(SCC(=O)NCc3ccc(F)cc3)[nH]c2c1	1.5	-4.6	-1.2	-1.8	1.2	0.652	i
CC1(C(=O)N2CCN(c3ccccc3)CC2)CC1(Cl)Cl (stereo unspecified)	-0.6	-0.2	0.4	-0.4	96.2*	0.73	i
Cc1cc(/C=N/NC(=O)C(=O)N2CCCC2)c(C)n1-c1cccc(Br)c1	-9.0	-3.8	nt	-1.0	5.7	nt	nt
CN(CC(=O)NCc1ccc2c(c1)OCO2)S(=O)(=O)c1ccc(F)cc1	-0.8	2.7	1.9	-0.6	-0.5	0.725	i
O=S(=O)(Nc1ccc2c(c1)nc1n2CCN(Cc2ccccc2)C1)c1ccccc1	4.3	4.3	-4.2	3.4	nt	0.678	nt
COC(=O)c1cn(-c2ccc(Cl)cc2)c(=O)c2ccccc12	2.5	-0.5	3.0	-0.3	1.5	0.695	nt
O=c1cc(NC2CCCCCC2)[nH]c(=O)[nH]1	3.7	-6.0	1.8	-0.4	13.8	0.806	nt

This is a subset, so the mix of outcomes need not match the whole.
